Sfp inh: qHTS Assay for Inhibitors of Bacillus subtilis Sfp phosphopantetheinyl transferase (PPTase); Biochemical Sfp PPTase activity, qHTS; Potency, µM, without a hit: max response, negative = inhibition, actives largely listed as inhibitors; 3.5% of 310,000 active; AID 1490, 2009; active = well fitted inhibition curve with a large enough effect; inconclusive = small, poorly fitted or top-dose-only effect, or another doubt; inactive = no such curve, though single readings can be large or run the other way;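 also: the enzyme is Sfp with the accession as filed and its product quenches rhodamine fluorescence; potency is read from the fitted curve at half-maximal effect; 0% = enzyme reaction without inhibitor and -100% = no enzyme wells; top concentration of the series not given in the record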
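Fluorescence-quenching assay with 15 nM Sfp, 5 uM rhodamine-CoA and 12.5 uM BHQ-2-labelled ybbR peptide in pH 7.6 Hepes/MgCl2 buffer. Enzyme was pre-incubated with compound for 15 min at room temperature. Rate was taken from the 30-min fluorescence change (525/598 nm).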
CtBP-E1A inh: qHTS Assay for Inhibitors of the CtBP/E1A Interaction. CtBP / adenovirus E1A interaction (AlphaScreen). AlphaScreen GST-E1A/His-CtBP binding, 1536-well; stronger effect = lower value; control for the full effect not named in the record. activity change, % (no concentration beside the values). 0.49% of 340,000 active. AID 651724, 2012; in the data active means activity change below about -65%; inconclusive means about -30% to -65%; inactive means above about -30%; also: % is scaled to controls: 0 for no effect and ±100 for the full control effect; compound concentration not given in the record
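AlphaScreen with 125 nM GST-E1A and 125 nM His-CtBP (5X stocks) in Tris pH 8.0, 300 mM NaCl, BSA, Tween 20, TCEP. Compounds preincubated 2 h at 37 deg C, then glutathione donor/nickel acceptor beads added for 1 h at 37 deg C in dark.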
D2 agonist: Beta-Arrestin HTS for Positive Allosteric Modulators of the Human D2 Dopamine Receptor: Agonists; AID 624465, 2012; activation, % (concentration not given with the values); 0.084% of 360,000 active; DiscoveRx PathHunter D2 beta-arrestin, luminescence, 90 min; 100% = 57 uM dopamine signal; D(2) dopamine receptor (Homo sapiens), P14416; in the data active = activation above about 40%; inconclusive = about 15% to 40%; inactive = below about 15%; also: compound concentration not given in the record; the text of the record calls up to 30% inactive
Target sequence (P14416 whole entry, looked up): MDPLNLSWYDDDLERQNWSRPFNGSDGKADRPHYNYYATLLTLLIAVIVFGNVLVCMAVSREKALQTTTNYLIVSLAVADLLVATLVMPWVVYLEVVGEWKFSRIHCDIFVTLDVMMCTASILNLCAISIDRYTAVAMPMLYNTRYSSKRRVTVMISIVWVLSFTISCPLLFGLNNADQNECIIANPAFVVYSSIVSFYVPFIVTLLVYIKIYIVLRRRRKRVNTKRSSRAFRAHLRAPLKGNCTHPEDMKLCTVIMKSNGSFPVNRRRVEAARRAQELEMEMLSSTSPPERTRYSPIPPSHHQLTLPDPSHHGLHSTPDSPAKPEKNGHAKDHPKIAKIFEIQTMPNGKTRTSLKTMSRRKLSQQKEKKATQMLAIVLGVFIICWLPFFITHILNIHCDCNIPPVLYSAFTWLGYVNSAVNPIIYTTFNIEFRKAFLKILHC
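DiscoveRx PathHunter D2 beta-arrestin cells (2,100/well) attached overnight, then compound-stimulated 90 min at 37 C in HBSS/10 mM HEPES/0.1% Tween-20 buffer; beta-galactosidase complementation read by luminescence after 1 h at ambient temperature. Dopamine 57 uM final (EC100) as control.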
TRPV1 PAM: HTS Assay for Compounds that Act as Potentiators of the Vanilloid Receptor 1 | TRPV1-expressing cells, Fluo-8 calcium influx, capsaicin EC20 potentiation; host cell line not named in the record; control for the full effect not named in the record | 0.02% of 320,000 active | AID 540277, 2011 | potentiation, % at 8.33 µM; active means potentiation above 80%; inconclusive means 30% to 80%; inactive means below 30%; also: 0% is about no effect
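TRPV1-expressing cells were cultured overnight at 35.5C and loaded with Fluo-8 calcium dye for 40 to 90 min at room temperature. After a 10 s baseline, compound was added and calcium influx was read kinetically for 3 min (ex 480/em 520 nm).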
Six1-Eya2 blk: qHTS Assay for Inhibitors of the Six1/Eya2 Interaction; AlphaScreen GST-Six1/His-Eya2 binding, biochemical; stronger effect = lower value; control for the full effect not named in the record; AID 651725, 2012; activity change, % (test concentration not listed); 0.56% of 360,000 active; in the data active = activity change below about -65%; inconclusive = about -30% to -65%; inactive = above about -30%; also: % is scaled to controls: 0 for no effect and ±100 for the full control effect; compound concentration not given in the record
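AlphaScreen with GST-Six1 and His-Eya2 (5X mix: 250 nM and 500 nM), glutathione donor and nickel acceptor beads; buffer 50 mM Tris pH 8.0, 300 mM NaCl, 1 mM TCEP; 1 h at 37 C in the dark.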
PINK1 modulator: A Quantitative High throughput Screen to Identify Chemical Modulators of PINK1 Expression | 0.2% of 410,000 active | PINK1 immunofluorescence, high-content cytometry, 24 h | Potency, µM (doses to about 76.6 µM), without a hit: at the highest dose activation (PINK1 increase), most hits filed as activators; active = well fitted activation curve with a large enough effect; inconclusive = small, poorly fitted or top-dose-only effect; inactive = flat fitted curve, though single readings scatter; cell line not stated here;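 also: potency is read from the fitted curve at half-maximal effect; % of control where 0% means no effect; nearly all actives have a fitted effect of over 65% in size; a mitochondrial uncoupler was the plate control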
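Measures PINK1 amount and localization on or inside mitochondria by immunofluorescence. Stable cells get compounds at 5 concentrations for 24 hours before fixation and staining; CCCP controls included.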
D2 PAM: Beta-Arrestin HTS for Positive Allosteric Modulators of the Human D2 Dopamine Receptor: Potentiators | DiscoveRx D2 beta-arrestin cells, luminescence, 90 min; 100% = 57 uM dopamine signal | potentiation, % (concentration not given with the values) | 0.23% of 360,000 active | AID 624464, 2012; active = potentiation of 50% or more; inconclusive = 30% to 50%; inactive = 30% or less;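 also: compound concentration not given in the record; tested on top of an EC20 dose of dopamine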
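PathHunter D2 cells, attached overnight at 37 deg C, received compound in DMSO plus dopamine at EC20 (50 nM final) for 90 min at 37 deg C. Beta-arrestin recruitment was read as luminescence after 1 h with detection reagent at ambient temperature.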
An asterisk follows results filed as active; u = inconclusive; x = not tested or not shown; & = joins results of further samples; [ ] = dose if it differs, or a comment.

entry	mol	Sfp inh	D2 agonist	Six1-Eya2 blk	D2 PAM	TRPV1 PAM	CtBP-E1A inh	PINK1 modulator
1	Clc1ccccc1/C=N/c1cc(-c2ccccc2)nn1-c1ccccc1	-13%	-2.1	-7	-18	x	-10	4.5%
2	COc1ccc(NC(=O)COc2ccc(/C=C/c3cc[n+](C)cc3)cc2OC)cc1	-3%	0.1	-1	-7	-16	2	3.5%
3	CCOc1ccc(-c2cccc(NS(=O)(=O)c3cc([N+](=O)[O-])ccc3Cl)c2)nn1	x	0.9	-10	15	u	-16	-1.9%
4	O=C(O)c1cc2nc(-c3ccc(F)cc3)cc(C(F)(F)F)n2n1	-11%	-3.0	u	4	4	u	1.1%
5	CC(=O)Nc1ccc(N2CCN(C(C)=O)CC2)cc1	-8%	0.6	3	1	-3	3	-2.9%[38.3 µM]
6	Cc1cnc(NC(=O)C2CCCC2)s1	10%	5.4	2	-20	-6	3	-2.5%
7	Cc1ccc(F)c(C2C3C=CCC(c4cccc(-c5ccc(N(C)C)cc5)c4)C3C(=O)N2Cc2ccccc2)c1 (stereo not drawn)	2%	-2.3	u	-5	28	u	2.6%
8	CC1(c2ccc([N+](=O)[O-])cc2)NC(=O)N(CC(=O)Nc2ccc(N3CCCCC3)cc2)C1=O (stereo not drawn)	x	-4.7	-25	-12	-7	-11	12%
9	COC(=O)c1ccccc1NC(=O)CCc1ccccc1	0%	-6.1	19	-9	2	12	1.1%
10	O=C(Cn1nc(C(F)(F)F)cc1C1CC1)NCc1ccccc1F	4%	-4.7	4	-17	22	0	2.7%
11	COc1ccccc1C(CNC(=S)NCc1ccccc1)N1CCCC1 (stereo not drawn)	12%	-1.5	-3	-13	-7	-11	0.5%
12	COC(=O)CCCC1=CC2=C(c3ccccc3)C(=O)C(C)(OC(=O)C3CCCC3)C(=O)C2=CN1Cc1ccc(OC)cc1 (stereo not drawn)	2%&-1%	-7.6	u	-11	u	u	0.7%
13	COc1cc(C2c3c(n[nH]c3C)C(=O)N2c2ccc(C)cc2)ccc1O (stereo not drawn)	10%	0.0	-2	6	4	0	8.0%
14	O=c1ccc2ccc(O[C@@H]3O[C@H](CO[C@@H]4OC[C@](O)(CO)[C@H]4O)[C@@H](O)[C@H](O)[C@H]3O)cc2o1	x	-2.2	5	-3	-8	4	0.2%
15	COc1ccc(N2CCN(S(=O)(=O)c3cn(C)cn3)CC2)cc1	13%	-0.8	2	-4	-2	0	3.5%
16	O=c1[nH]nc(SCc2ccccc2)c(=O)[nH]1	13%	-3.1	1	5	-1	28	0.0%
17	O=C(Nc1ccccc1C(=O)Nc1ccc(F)cc1)c1ccco1	16%	-6.8	0	-12	1	-6	0.9%
18	CC(C)c1nc(SCC(=O)NCC2CCCO2)c2c(=O)n(C)c(=O)n(C)c2n1 (stereo not drawn)	-10%	-1.4	3	-12	0	4	1.1%
19	COc1ccc(Cl)cc1NC(=O)CNc1ccccc1N1CCOCC1	23%	-5.7	-5	-2	5	-2	2.7%
20	CCOC(=O)Cc1nnc(NC(=O)c2ccccc2OCC)s1	13%	-1.5	-3	-9	4	-1	-0.9%
21	O=C(Nc1cc(C(F)(F)F)ccc1N1CCOCC1)C1CC1	x	-4.1	-2	-7	-8	2	-0.7%
22	CS(=O)(=O)c1nc(S(=O)(=O)c2ccc(Cl)cc2)c(N2CCC3(CC2)OCCO3)s1	6%	-2.1	2	-3	-10	x	-1.8%
23	Cc1ccc(C)c(NC(=O)CS(=O)(=O)c2cccc3nsnc23)c1	18%	u	-5	-10	-1	-11	-0.6%
24	CC(=O)N(C(C)=O)N1C(=O)c2cccc3c(N4CCOCC4)ccc(c23)C1=O	-12%	8.0	7	-12	-3	x	-3.0%
25	O=C(CC(C(=O)O)c1ccccc1)Nc1ccccc1 (stereo not drawn)	-9%	-1.5	7	-27	1	14	-0.5%
26	COC(=O)c1cc(Cl)c(NC(=O)c2ccco2)cc1OC	10%	-0.3	2	-31	3	1	8.8%
27	Cc1c(C)c2ccc(OCC(=O)NCCCn3ccnc3)c(C)c2oc1=O	5%	-6.4	-6	0	u	-4	1.8%
28	COc1ccccc1N(C)S(=O)(=O)c1ccc(Cl)c(C(=O)NCc2cccnc2)c1	x	-5.8	8	-9	5	5	0.4%
29	Cc1cccc(C)c1OCc1nnc(SCC(=O)Nc2cccc(C(=O)N3CCOCC3)c2)n1C	16%	-4.7	-4	-5	-1	-3	-1.3%
30	CN(C)/C=C/C(=O)c1ccc2noc(-c3ccc(F)cc3)c2c1	3%	9.7	-3	u	13	-4	-1.5%
31	CSc1ncccc1C(=O)OCC(=O)c1ccc(Br)s1	-1%	-2.6	6	-5	-12	x	-0.6%
32	CCOC(=O)c1ccccc1NCN1C(=O)CSC1=O	-3%	4.2	6	-6	13	11	0.7%[38.3 µM]
33	Cc1ccc(NC(=S)N(CCN(C)C)Cc2cc3cc(C)cc(C)c3[nH]c2=O)cc1	15%	-2.3	-5	-10	1	-9	6.8%
34	Cc1ccc([C@@H]2[C@@H]3C(=O)N(C)C(=O)[C@@H]3[C@]3(C)C(=O)N(Cc4ccc(-c5ccccc5)cc4)CC(=O)N23)o1	50µM*	-5.5	-13	-6	-1	-9	-0.9%
35	COc1ccc(N2CCN(C(=O)[C@@H](NC(=O)c3cc(OC)cc(OC)c3)C(C)C)CC2)cc1	-4%	2.5	-4	-2	-20	-5	8.4%
36	CC1Cc2ccccc2N1C(=O)CCNS(=O)(=O)c1ccc2c(c1)CCC(=O)N2 (stereo not drawn)	11%	0.6	9	6	-18	2	2.2%
37	COc1ccc(S(=O)(=O)NCc2ccc(C(=O)NCCCN3CCCC(C)C3)cc2)cc1 (stereo not drawn)	20%	-2.9	-1	-27	6	1	0.1%
38	Cc1ccc(N(Cc2ccccc2)C(=O)c2cccc(F)c2)cc1	14%	-7.6	13	-13	3	30	7.2%
39	COc1ccc2c(Cl)c(-c3nnco3)sc2c1	-4%	-4.5	-1	-9	x	-8	-0.3%
40	Cc1ccc(NC(=O)C(c2ccccc2)N2CCN(CC(=O)NC3CC3)CC2)cc1 (stereo not drawn)	x	-0.9	3	-8	-7	9	3.5%
41	Cc1cc(C)n(C(=O)COc2ccccc2[N+](=O)[O-])n1	18%	-1.4	-12	-4	x	4	0.4%
42	CCN1C(=O)N[C@@H](CCc2ccccc2)[C@H](C(=O)OC)[C@H]1C	4%	-1.5	-1	2	x	4	-0.5%
43	COCCNC(=O)COc1ccc(Nc2ccccc2)cc1	-20%	0.9	-2	-18	-6	-2	-1.1%
44	CN1C(=O)c2ccc(NC(=O)c3ccc(Cl)cc3Cl)cc2C1=O	1%	1.8	4	-9	-10	x	1.5%
45	O=C(O)CCn1cc(C(=O)O)c(-c2ccccc2)n1	4%	-1.5	2	-3	-6	3	0.0%
46	O=C(NCc1ccco1)c1ccc(S(=O)(=O)N2CCCc3ccccc32)cc1	13%	1.1	-13	-4	-6	-6	12%[38.3 µM]
47	Cc1cccc(NC(=O)CSCC(=O)N(C)Cc2ccc(Cl)c(Cl)c2)c1	x	0.0	-3	-2	-1	-6	1.5%
48	COc1ccc(C2=NC(C)(C)Cc3cc(OC)c(OC)cc32)cc1	1%	-3.7	0	-10	-5	x	-0.5%
49	O=[N+]([O-])c1ccc(NC(=S)NCc2ccncc2)cc1	17%	-1.1	2	-12	-16	0	0.5%
50	CCOC(=O)C(=NC1CCS(=O)(=O)C1)NNc1ccc(Br)cc1 (stereo not drawn)	-25%	u	-12	9	-3	-6	4.3%
51	Cc1cnc(NC(=O)CSc2nc3ccccc3c(=O)[nH]2)s1	12%	-1.2	-4	-13	2	-2	0.8%
52	Cc1ccc(S(=O)(=O)N(C)CC(=O)NCC(=O)Nc2ccc(F)c(F)c2F)cc1	x	-2.4	-2	-18	x	3	1.1%
53	N#CC1=C(N)Oc2cc(O)ccc2C1c1ccc(Br)s1 (stereo not drawn)	17%	-3.5	13	-39	23	27	1.1%
54	O=C(CSc1nnc(NC2CCCCC2)s1)Nc1ccc2c(c1)C(=O)c1ccccc1C2=O	3%	5.8	u	-5	0	x	0.2%
55	CC1CN(C(=O)COC(=O)c2ccc(Cl)c(S(=O)(=O)N3CCCCC3)c2)CC(C)O1 (stereo not drawn)	5%	5.9	-4	1	7	1	-0.8%
56	CC(C)CCN1C(=O)c2ccc(-c3nc4ccccc4c(=O)o3)cc2C1=O	6%	0.0	2	-2	-1	1	0.8%[38.3 µM]

In a second layout: entries from further up.
Under each structure – Sfp inh, D2 agonist, Six1-Eya2 blk, D2 PAM, TRPV1 PAM, CtBP-E1A inh, PINK1 modulator
(54) O=C(CSc1nnc(NC2CCCCC2)s1)Nc1ccc2c(c1)C(=O)c1ccccc1C2=O
→ 3%, 5.8, u, -5, 0, x, 0.2%
(55) CC1CN(C(=O)COC(=O)c2ccc(Cl)c(S(=O)(=O)N3CCCCC3)c2)CC(C)O1 (stereo not drawn)
→ 5%, 5.9, -4, 1, 7, 1, -0.8%

Going on with the list.
entry	mol	Sfp inh	D2 agonist	Six1-Eya2 blk	D2 PAM	TRPV1 PAM	CtBP-E1A inh	PINK1 modulator
57	Cc1ccnc(NC(=O)c2sc3cc(Cl)ccc3c2Cl)c1	18%	-1.0	2	-3	-15	4	8.4%
58	COc1ccccc1NS(=O)(=O)c1cccc(NC(=O)c2nc3nc(C)cc(C)n3n2)c1	20%	-3.3	-11	-25	3	-4	5.6%
59	COc1ccc(NC(C)=O)cc1CNC(=O)CN1CCOCC1	13%	0.0	2	15	-11	12	1.3%
60	Cc1ccc(S(=O)(=O)N2CCOCC2)cc1NC(=O)Cn1cc(C(F)(F)F)cc(Cl)c1=O	8%	1.7	6	10	5	16	-0.3%
61	O=C(NCC(c1cccnc1)N1CCOCC1)C1CCCCC1 (stereo not drawn)	18%	-2.6	5	-6	18	4	1.4%
62	O=c1oc2ccc3ccccc3c2cc1-c1nc2ccccc2o1	x	-0.8	2	-4	x	-4	24%[38.3 µM]

Bioassay records from PubChem BioAssay.
